High-throughput results deposited in PubChem BioAssay by Center for Chemical Genomics, University of Michigan.
TAR Tat displ: HIV-1 TAR-Tat binding disruption. HIV-1 TAR RNA, Tat peptide displacement FRET; active compounds read high. z-score (test concentration not listed). actives 0.6% (n = 100,000);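 note: score is relative to mean and SD of negative controls; some compounds called inactive have numbers as strong as hits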
CDC25B-CDK2 inh: human CDC25B-CDK2/CyclinA binding inhibition; z-score (test concentration not listed); P30305+P24941; actives 0.72% (n = 94,000); HTRF CDC25B-CDK2/CyclinA binding, anti-His/anti-Flag; active compounds read high;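 note: score is relative to mean and SD of negative controls; strong numbers were not always called active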
* marks the source's active call; other numbers are inactive results; · = no result given.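 Rule for the calls: active = z-score from 3 up in half or more of its runs; inactive = the rest.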

SMILES	TAR Tat displ	CDC25B-CDK2 inh
CCN1CCN(c2csc3ccc(F)cc3c2=O)CC1	-0.19	·
COC(=O)/C=C(\O/N=C(\N)c1ccc(Cl)cc1)C(=O)OC	·	2.6
N=C1C(c2nc3ccccc3[nH]2)=C(O)CN1c1ccccc1F	1.8	-0.68
Cc1cccnc1Nc1nc(-c2cccnc2)cs1	3.5	-2.4
CC(=O)N1c2c(cc(Br)cc2S(=O)(=O)N2CCCCCC2)CC1C (centres undefined)	·	0.08
Cc1cc(S(=O)(=O)NCCc2csc3nc(-c4ccc(Cl)cc4)nn23)ccc1F	1	·
COc1cc2c(cc1OC)C(c1cc3ccccc3oc1=O)=NC(C)(C)C2	·	-2.1
N/C(=N\OC(=O)c1ccc(Cl)cc1)c1cccc(CS(=O)(=O)c2ccccn2)c1	·	-0.66
CC(C)CCn1c(=O)c2sccc2n2c(CCCC(=O)N3CCN(c4ccccn4)CC3)nnc12	-1.5	·
COc1cccc(N2CC(C(=O)Nc3nnc4n3CCCS4)CC2=O)c1 (centres undefined)	0.16	·
CC(O)c1nc2ccccc2n1CCCCOc1ccc(Cl)cc1 (centres undefined)	1	-2.2
O=C1c2[nH]nc(-c3ccccc3O)c2C(c2cccc(Cl)c2)N1Cc1ccncc1 (centres undefined)	-0.53	3

Reprinted from the part before: 5 compounds; new compounds follow.
SMILES	TAR Tat displ	CDC25B-CDK2 inh
N/C(=N\OC(=O)c1ccc(Cl)cc1)c1cccc(CS(=O)(=O)c2ccccn2)c1	·	-0.66
CC(C)CCn1c(=O)c2sccc2n2c(CCCC(=O)N3CCN(c4ccccn4)CC3)nnc12	-1.5	·
COc1cccc(N2CC(C(=O)Nc3nnc4n3CCCS4)CC2=O)c1 (centres undefined)	0.16	·
CC(O)c1nc2ccccc2n1CCCCOc1ccc(Cl)cc1 (centres undefined)	1	-2.2
O=C1c2[nH]nc(-c3ccccc3O)c2C(c2cccc(Cl)c2)N1Cc1ccncc1 (centres undefined)	-0.53	3
CC1=C(C(=O)Nc2ccc(C(C)C)cc2)C2(CCC(C)CC2)OC1=O (centres undefined)	0.85	0.16
Cn1c(=O)[nH]c(=O)c2c1nc1n2CCN1c1ccccc1	-0.99	-2.5
Cc1oc(-c2cccc(Cl)c2)nc1CSc1nc2c(c(=O)[nH]1)CCC2	-1	-0.76
Cc1ccc(C)c(N2C(=O)N(Cc3cc(=O)n4ccccc4n3)c3ccccc3S2(=O)=O)c1	0.5	·
CCOC(=O)C1CCN(C(=O)NC2COc3ccc(OC)cc3C2)CC1 (centres undefined)	0.72	·
Cn1c(=O)c2c(ncn2CC(=O)NCc2ccccn2)n(C)c1=O	0.61	-2.1
O=C1C=C(NC2Cc3ccccc3C2)CC(c2ccccc2)C1 (centres undefined)	0.51	-1.2
O=c1[nH]c2ccc(S(=O)(=O)NCc3ccccc3)cc2[nH]1	1.5	0.77
O=C(Nc1ccc(F)cc1F)N1CCCN(CCOc2ccccc2)CC1	·	-3.2
CCCc1cc(N2CCN(c3cccc(C)c3C)CC2)n2cnnc2n1	0.69	-0.43
CSc1cccc(NC(=O)CSc2nc(-c3ccco3)nc3cc(=O)[nH]n23)c1	1.1	·
NC(=O)C1CCN(c2ccc(C(F)(F)F)cn2)CC1	·	-1.9
COc1ccc(N(C)C(=O)c2cc3c(s2)-c2ccccc2S(=O)(=O)C3)cc1	0.73	-3.6
CC(C)Nc1nc2c(S(=O)(=O)c3ccccc3)nnn2c2ccc(Cl)cc12	1.2	-0.6
CC(=O)N1c2ccc(S(=O)(=O)N3CCCC3)cc2CC1C(=O)O (centres undefined)	-0.69	1.2
O=C(CC(=O)Nc1ccccc1OC(F)(F)F)Nc1ccccc1OC(F)(F)F	·	-1.8
CCOC(=O)c1c(NC(=O)NC(C)c2c(-n3cccc3)sc(C)c2C)sc2c1CCCC2 (centres undefined)	0.52	-0.94
Cc1ccc2nc(-c3cccnc3)c(Nc3ccccc3C)n2c1	·	-2.9
NC(=O)c1c(NC(=O)C2c3ccccc3Oc3ccccc32)sc2c1CCC2	·	-0.51
N#Cc1c(NC(=O)c2ccc(C(=O)O)cc2C(=O)O)sc2c1CCCC2	1.4	-1.6
CCOC(=O)C1=C(C)Nc2nc3ccccc3n2C1c1ccc(C(C)C)cc1 (centres undefined)	0.7	-2
NCc1nc2cccnc2n1Cc1ccc(F)cc1	-1.7	0.68
Cc1cc2n(n1)CCC(=O)N2CCCC(=O)N1CCC(N2CCCCC2)CC1	1.3	·
CCCSCCCN1C(=O)c2cc3occc3n2CC1(C)C(=O)NC1CCC(C)CC1 (centres undefined)	3.3	·
Cc1cc(C)n(CC(=O)Nc2cccc(Cl)c2)c(=O)c1C#N	·	-2.2
C1=C(N2CCOCC2)Cc2ccccc21	·	-1.6
COc1ccc(Br)cc1C1CC(=O)N2CN(c3ccccc3OC)CSC2=C1C#N (centres undefined)	0.32	6.2*
Cc1ccc(-c2c(C(F)(F)F)nn3c(N(C)C)cc(C)nc23)cc1	-1.6	-1.2
Cc1cc(C)n(CCc2nc3c4ccccc4nc(NCCc4c[nH]c5ccccc45)n3n2)n1	1.5	-1.1
COC(=O)Cn1c(=O)c2cccn2c2ccc(F)cc21	0.54	0.39
CCOC(=O)c1cc(S(=O)(=O)Nc2ccc(F)c(Cl)c2)cn1C	0.28	-1.4
O=C(NC1CCCC1)c1sc2ncccc2c1-n1cccc1	0.36	·
CCOC(=O)N1CCc2c(sc3c2C(=O)NC(c2ccccc2)N3)C1 (centres undefined)	-0.19	0.33
Cn1cc(C(=O)NCC2CCCO2)c(=O)c2cc(S(=O)(=O)N3CCCC3)ccc21 (centres undefined)	·	-0.26
CCOC(=O)N1CCN(S(C)(=O)=O)CC1	0.13	-0.71
O=C(/C=C/c1ccc(O)cc1)c1ccc(O)cc1O	1.2	-1.8
CC(C)N1CCn2c(nc3ccccc32)C1	-1.3	-1.2
CCCNS(=O)(=O)c1ccc(C)c(-c2nnc3c4ccccc4c(C)nn23)c1	0.47	-0.39
Cn1c2ccccc2c2cnn(CC(=O)N3CCN(c4ccc(F)cc4)CC3)c(=O)c21	1.6	-0.4
CSC1=NC=C(C#N)C2=NC(c3ccc4c(c3)OCO4)NN12 (centres undefined)	·	-1
O=C(CCc1nc(-c2ccco2)no1)NCC1CCCO1 (centres undefined)	1.4	-0.48
COc1ccc(-c2nc(SCCOc3ccccc3C)n3[nH]c(=O)cc3n2)cc1	0.25	·
COc1ccc(S(=O)(=O)c2n[nH]n3c2nc(=O)c2ccccc23)cc1	2	-0.46
CCOC(=O)C1CCCN(S(=O)(=O)c2cc(Br)cc3c2N(C(=O)C2CC2)CC3)C1 (centres undefined)	-1.1	1.1
COc1cccc2c1c(NC(=O)Nc1ccc(F)cc1F)nn2C	·	-0.18
O=C(O)c1ccc(N2C(=O)c3[nH]nc(-c4ccccc4)c3C2c2ccccn2)cc1 (centres undefined)	·	-0.17
O=C1NC(c2ccc(-c3cccc(Cl)c3)o2)C(C(=O)c2ccccc2)C(O)(C(F)(F)F)N1 (centres undefined)	·	-0.85
O=c1oc(-c2cccc(F)c2)nc2ccccc12	·	-0.74

Record cards, as listed above. Screens in order: TAR Tat displ	CDC25B-CDK2 inh
`CCN1CCN(c2csc3ccc(F)cc3c2=O)CC1` in the list: -0.19	·
`CC(C)CCn1c(=O)c2sccc2n2c(CCCC(=O)N3CCN(c4ccccn4)CC3)nnc12` in the list: -1.5	·
`O=c1[nH]c2ccc(S(=O)(=O)NCc3ccccc3)cc2[nH]1` in the list: 1.5	0.77
`Cc1cc(C)n(CC(=O)Nc2cccc(Cl)c2)c(=O)c1C#N` in the list: ·	-2.2

(list continues)
SMILES	TAR Tat displ	CDC25B-CDK2 inh
O=C(NC1CCS(=O)(=O)C1)c1sc2ccccc2c1Cl (centres undefined)	·	-0.97
CCC1(C)Cc2c(c(N3CCOCC3)nc3sc4c(NCCN(C)C)ncnc4c23)CO1 (centres undefined)	0.39	-1.5
Cc1ccc(-c2nnc3c4ccccc4c(C)nn23)cc1NC(=O)CSc1nc2ccccc2o1	-0.58	-0.41
COc1cccc(C2Nc3ccccc3NC3=C2C(=O)CC(c2cccs2)C3)c1 (centres undefined)	0.55	-1.2
c1csc(-c2nc3ccccc3s2)c1	·	-2.2
CC(C)(C)CC(=O)NCC(c1cccs1)S(=O)(=O)c1ccc(Cl)cc1 (centres undefined)	-0.34	·
O=S(=O)(c1ccc2[nH]c3c(c2c1)CCCC3)N1CCCc2ccccc21	1.4	·
O=C(CN1CCN(c2ccc(Cl)cc2)CC1)Nc1ccc2c(c1)OCO2	·	-0.88
Cc1cc2nc(C)n(Cc3ccccc3F)c2cc1C	-0.16	-0.57
CCSc1nc(=O)n(-c2ccc(CC)cc2)c2c1CCC2	1.5	-1.9
Cc1ccc2c(c1)-c1c(s[s+]c1SCC(=O)c1ccccc1)C(C)(C)N2	·	-2.6
CCCCN(CC)CCNC(=O)Cn1ncc2c([nH]c3ccccc32)c1=O	-0.56	·

In a second layout: 4 of the compounds above.
Every second line gives: TAR Tat displ	CDC25B-CDK2 inh
> c1csc(-c2nc3ccccc3s2)c1
 : ·	-2.2
> O=S(=O)(c1ccc2[nH]c3c(c2c1)CCCC3)N1CCCc2ccccc21
 : 1.4	·
> CC(C)(C)CC(=O)NCC(c1cccs1)S(=O)(=O)c1ccc(Cl)cc1 (centres undefined)
 : -0.34	·
> CCC1(C)Cc2c(c(N3CCOCC3)nc3sc4c(NCCN(C)C)ncnc4c23)CO1 (centres undefined)
 : 0.39	-1.5

(cont.)
SMILES	TAR Tat displ	CDC25B-CDK2 inh
CCOC(=O)N1CCN(S(=O)(=O)c2ccc3c(c2)N(C)C(=O)CC(=O)N3C)CC1	2.7	-2.4
C=CCNc1nc(N2CCCC2)c2cnn(C)c2n1	1.6	·
Clc1ccc(-c2csc3ncnc(NCCCN4CCCCC4)c23)cc1	-0.05	·
CS(=O)(=O)c1nc(S(=O)(=O)c2ccc(Cl)cc2)c(NCCN2CCOCC2)s1	-0.47	-0.05
Cc1nn(C(C)(C)C)c(OC(=O)c2ccc(Br)o2)c1S(=O)(=O)c1ccccc1	·	-2.2
Cc1[nH]c2c(Cl)cccc2c(=O)c1CN1CCCCCC1	·	-1.4
COCCCNC(=O)Cn1cc2c(n1)CCCCC2	·	-2.9
Oc1c(Cl)cc(Cl)cc1C1Nc2ccccc2-n2cccc21 (centres undefined)	·	-0.15
CCOC(=O)NC(=S)Nc1ccc(C(C)(C)C)cc1	·	-1.5
Cc1cc(NCCN(C)C)n2nc(C(F)(F)F)c(-c3ccccc3Cl)c2n1	1	-0.84
Cc1cc(-c2ccc(C(C)C)c(S(=O)(=O)N(C)C3CCCCC3)c2)on1	1.1	·
CC(=O)OCCNc1cc(N2CCCC(C)C2)c2noc3c2c1C(=O)c1ccccc1-3 (centres undefined)	2.8	-0.95
O=C1CC(c2ccc(F)cc2F)c2c(nc(SCc3ccc(Cl)cc3)[nH]c2=O)N1 (centres undefined)	0.82	-0.61
CCCN(CCC)C(=O)c1oc2ccccc2c1NC(=O)c1cccs1	2.4	·
c1ccc2c(c1)nc(N1CCCCC1)c1nncn12	0.96	-0.53
CCSCCOC(=O)C1=C(C)NC2=C(C(=O)CC(C)(C)C2)C1c1ccc(F)cc1 (centres undefined)	·	-0.18
Cc1cc2c(cc1S(=O)(=O)N1CCN(c3ccccn3)CC1)OCC(=O)N2	2.9	·
Cc1nn(-c2ccccc2)nc1C(=O)Oc1ccc(CC#N)cc1	·	0.12
O=C(c1cc2ccc3cccnc3c2[nH]1)N1CCOCC1	1.9	·
COC(=O)CCc1nc2ccccc2nc1OC	0.73	-0.66
O=c1ccc(-c2ccc(Cl)cc2)n[nH]1	·	-1.4
O=c1c2sccc2nc(SCC2OCCO2)n1Cc1ccc2c(c1)OCO2	·	-8.4
CC1=C(c2ccc(C)cc2)S(=O)(=O)NC1=NCc1ccccc1Cl	2	-8.7
O=C(Cn1ncc2ccccc2c1=O)Nc1nnc(CC(=O)N2CCOCC2)s1	-0.83	-0.44
